High-throughput results: PubChem, ICCB-Longwood Screening Facility, Harvard Medical School
S aureus helic = blocks Staphylococcus aureus DNA helicase | inhibition, %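 (tested at about 80 µM)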 | purified S. aureus helicase, fluorescence unwinding assay; about half of the hits fall short of the stated cut | actives 0.05% (n = 120,000);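 active = both duplicates at 50% or more, or one of them with a favoured structure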;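 note: 0% = mean of negative control wells and 100% = mean of positive control wells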
MgrA-DNA mod = S. aureus MgrA-DNA binding modulation | fluorescence polarization | AID 602314 | actives 0.13% (n = 84,000) | inhibition, %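 (about 10 µg/mL by stock and volumes)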;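 active = above 50% in either of two replicates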;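 note: 0% = protein plus DNA without compound and 100% = DNA alone without protein; higher means less MgrA bound to DNA so lower polarization; one replicate is shown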
An asterisk follows results filed as active; . = no result given. An excerpt; rates above refer to the full screens.

SMILES	S aureus helic	MgrA-DNA mod
Cc1cc(OC(=O)c2cccs2)c(Cl)c(C)c1Cl	.	-1.0
C=C(C)CNC(=S)N1CCNCC1	0	0.9
C=C(C)c1cccc(C(C)(C)NC(=O)N2CCCC(C(N)=O)C2)c1 (stereo unspecified)	9	1.0
O=C(O)CCn1nc(-c2ccc(F)cc2)cc(Cc2ccccc2)c1=O	-18	.
CN1CCC(NC(=S)NCCc2ccccc2)CC1	-6	.
CCOC(=O)c1c(C)[nH]c(C(=O)CSc2ccc(Cl)cc2)c1C	0	.
CCOC(=O)Cn1c(=O)c(C2OCCO2)cc2c(C)ccc(C)c21	6	-4.3
COc1ccc(NC(=O)COC(=O)C2CCN(C(=O)Nc3ccccc3)CC2)cc1Cl	5	.
COc1ccc2[nH]c(=O)c(CN(CCO)S(=O)(=O)c3ccc(Cl)c(C(F)(F)F)c3)cc2c1	-9	-3.0
COc1ccc(C2CC(=O)C3=C(C2)NC(=O)CC3c2ccccc2)cc1 (stereo unspecified)	5	3.0
Cc1nc2n(Cc3ccccc3)c3ccccc3n2c1C(=S)Nc1ccccc1	8	0.7
CC1Cc2ccccc2N1S(=O)(=O)c1cccc(C(=O)NC2CC2)c1 (stereo unspecified)	-2	0.1
CN(C)C(=O)c1cc(S(=O)(=O)N(C)C)c(Cl)cc1N1CCCC1	4	.
Cc1cc(OC(=O)/C=C/c2ccc(C)o2)n(Cc2c(Cl)cccc2Cl)n1	8	.
CC(C)c1ccc(C(=O)OCC(=O)N2CCCCC2)cc1	-10	-1.2
CCCCN(C)Cc1ccncc1	6	-0.9
COc1ccccc1N1CCN(C(=O)c2cccs2)CC1	.	0.5
C/C(=N\O)c1sc2scc(C)c2c1C	.	-1.6
O=C(NC1CCCCC1)c1c[nH]c2ccc(S(=O)(=O)Nc3ccc4c(c3)OCCO4)cc2c1=O	3	.
CC1(C)CC(NC(=O)NC23CC4CC(CC(C4)C2)C3)CC(C)(C)N1	6	0.9
CC1=C(C(=O)OCc2ccccc2)C(c2ccc(Br)s2)NC(=O)N1C (stereo unspecified)	.	-0.8
c1ccc(NC(c2ccccc2)c2nnc(-c3ccccc3)o2)cc1 (stereo unspecified)	-16	.
Cc1[nH]c(=O)[nH]c1C	8	.
Cc1ccc(S(=O)(=O)c2nc(NN)sc2Cl)cc1	21	.
c1ccc(-c2csc(N3CCN(c4ncccn4)CC3)n2)cc1	3	-1.1
COC(=O)C1=C(Nc2ccc3c(c2)OCCO3)CSC1	.	-1.2
COCCCn1c(C)cc(C(=O)Cn2nc(C)c(C)c(C#N)c2=O)c1C	-6	.
O=C1CN(NC(=O)NC2CCCCC2)C(=O)N1	13	.
O=C(Nc1ccc(Cn2nnc3ccccc32)cc1)c1cccs1	-5	-0.9
CCOC(=O)c1ccc(Oc2cc(C)nc(SC)n2)cc1	7	1.7
CCCCn1c(=O)[nH]c2c(c1=O)CCC2	4	.
CCCN1C(=O)C(O)(CC(=O)c2ccc(OC)cc2OC)c2cc(Br)ccc21 (stereo unspecified)	0	-5.8
C[N+]1(CC(O)C[N+]2(C)CCCCC2)CCCCC1	5	-1.3
O=C1c2ccccc2C(=O)c2cc(S(=O)(=O)Nc3nc4ccccc4s3)ccc21	.	0.8
O=[N+]([O-])c1cc(C(F)(F)F)ccc1-c1ccc(C(F)(F)F)cc1[N+](=O)[O-]	.	-0.7
c1cn(-c2ccc(N3CCCCC3)nn2)cn1	20	-2.5
N=C1/C(=C2\Nc3ccccc3S2)CC(=O)N1CCc1ccccc1	-13	.
CCCc1nnc(SCC(=O)Nc2ccccc2)o1	-5	0.8
CCC(CC)NC1CCN(Cc2ccccc2)CC1	19	1.4
CC(C)NC(=O)C1=CC(c2ccco2)=NS(=O)(=O)N1C	11	5.7
N#CCC(=O)Nc1ccc(C(=O)OCC(=O)N(Cc2ccccc2)C2CCS(=O)(=O)C2)cc1 (stereo unspecified)	-8	.
CCCC(=O)Nc1ccc(-n2c(C)ccc2C)cc1	19	.
CC(=O)Nc1ccc(S(=O)(=O)Nc2cc(C(F)(F)F)cc(C(F)(F)F)c2)cc1	.	0.1
O=C1Nc2ccccc2C12OCCCO2	10	.
CCOC(=O)c1ccc(NC(=O)C2CC(=O)N(C)C(=Nc3ccc(F)cc3)S2)cc1 (stereo unspecified)	.	0.9
CCOC(=O)c1c(NC(=O)CCc2ccccc2)sc(C(=O)Nc2cc(C(F)(F)F)ccc2Cl)c1C	.	-2.0
CCCn1c(C)cc(/C=C(\C#N)C(=O)N2CCN(S(=O)(=O)c3ccccc3C(F)(F)F)CC2)c1C	2	.
N#Cc1c2ccc(O)cc2n2ccccc12	-58	.
O=C(CSc1nnc(-c2ccc(Cl)cc2)o1)N1CCCC1c1ccc2c(c1)OCCCO2 (stereo unspecified)	-9	.
CC(Cc1cccs1)NS(=O)(=O)c1ccccc1 (stereo unspecified)	14	.

By substructure: the compounds so far with a CF3 group
SMILES	S aureus helic	MgrA-DNA mod
COc1ccc2[nH]c(=O)c(CN(CCO)S(=O)(=O)c3ccc(Cl)c(C(F)(F)F)c3)cc2c1	-9	-3.0
O=[N+]([O-])c1cc(C(F)(F)F)ccc1-c1ccc(C(F)(F)F)cc1[N+](=O)[O-]	.	-0.7
CC(=O)Nc1ccc(S(=O)(=O)Nc2cc(C(F)(F)F)cc(C(F)(F)F)c2)cc1	.	0.1
CCOC(=O)c1c(NC(=O)CCc2ccccc2)sc(C(=O)Nc2cc(C(F)(F)F)ccc2Cl)c1C	.	-2.0
CCCn1c(C)cc(/C=C(\C#N)C(=O)N2CCN(S(=O)(=O)c3ccccc3C(F)(F)F)CC2)c1C	2	.

(cont.)
SMILES	S aureus helic	MgrA-DNA mod
O=c1cc(CSc2nnc(COc3ccc(Cl)cc3)n2Cc2ccco2)nc2ccc(Br)cn12	-4	.
O=C(O)CC(CC(=O)Nc1ccc(I)cc1F)c1ccc(C(F)(F)F)cc1 (stereo unspecified)	.	-0.9
CN(C)c1cccc(C(=O)Oc2ccccc2Cl)c1	-16	.
CSc1nc(-c2ccccc2)c(C#N)c(N2CCCC2)n1	-15	.
CC(Sc1nnc(Nc2ccccc2F)s1)C(=O)N1CCc2ccccc21 (stereo unspecified)	-18	.
C=CCN=c1sc(C(=O)OC)cc(=O)n1CC=C	12	.
C=CCN=C(SCc1ccccc1)N1CCCC1	13	3.2
Cn1c(SCc2ccc(C(F)(F)F)cc2)nnc1C(F)(F)F	.	-1.1
Cn1cnc2cc(NCc3ccc(Br)cc3)ccc21	7	2.6
COc1ccccc1-c1nnc(-c2cccs2)o1	-2	-4.5

Reprinted at random: 2 compounds from above
SMILES	S aureus helic	MgrA-DNA mod
CC(Sc1nnc(Nc2ccccc2F)s1)C(=O)N1CCc2ccccc21 (stereo unspecified)	-18	.
Cn1c(SCc2ccc(C(F)(F)F)cc2)nnc1C(F)(F)F	.	-1.1

(cont.)
SMILES	S aureus helic	MgrA-DNA mod
CCN(CC)C(=O)c1csc(Nc2ccc(C)cc2)n1	7	-7.2
Nn1cc(-c2ccccc2)nc1SCC(=O)Nc1cccc2nsnc12	-2	.
Cc1noc(C)c1CSCC(=O)Nc1nc(SCc2ccc(Cl)cc2)n[nH]1	21	.
CC1=C(O)C(=O)/C(=C/N(C)C)C1	.	-1.5
N#Cc1ccc(OCc2noc(-c3ccsc3)n2)cc1	.	0.1
N#CCCS(=O)(=O)c1nnnn1-c1ccccc1	16	5.2
CCOC(=O)c1ccccc1NC(=O)COC	-3	2.1
CCN(C)C(=O)/C=C/c1cnc2ccccc2c1	.	1.2
O=c1oc2ccccc2c(O)c1CN1CCCC1	3	-3.1
O=C1/C(=C/c2cccs2)COc2ccccc21	6	.
NC(=O)c1ccc(NC(=O)COc2ccc(F)cc2Cl)cc1	0	.
COCC(C)n1c(SCc2ccc(C(=O)OC)o2)nc2ccccc2c1=O (stereo unspecified)	-1	.
Nc1nc(Cl)cc(N2CCOCC2)n1	16	-1.1
COC(=O)c1ccc(S(=O)(=O)N2CCCN(c3nccc(C(F)(F)F)n3)CC2)n1C	-36	.
COc1ccc(Br)cc1CSCCC#N	-1	1.2
CCOC(=O)C1CCCN(C(=O)CSc2ccc(NC(C)=O)cc2)C1 (stereo unspecified)	-12	.
c1coc(-c2nc3sc4c(NCCN5CCOCC5)ncnc4c3c3c2CCCC3)c1	46	.
Cn1c2ccccc2n2c(CCC(=O)O)c(-c3ccccc3)nc12	2	-3.3
CCN1C(=O)c2cccc3c(S(=O)(=O)N4CCCCCC4)ccc1c23	9	-0.1
COc1cccc(N(C)C(=O)/C=C/c2ccc(F)cc2)n1	-19	.
Cc1onc(-c2ccccc2)c1C(=O)Nc1sccc1C#N	-9	.
CC(=O)NCCc1nc2ccccc2n1CC(C)C	-13	.
Cc1ccc(S(=O)(=O)c2c(F)c(F)c(S(=O)(=O)c3ccc(C)cc3)c(F)c2F)cc1	0	-2.1
O=S(=O)(Cc1ccc(Cl)cc1Cl)c1nc2ncccc2[nH]1	-3	1.9
COC(=O)c1sccc1S(=O)(=O)Nc1ccc(C)cc1	.	-2.5
O=C(N/N=C/c1c(-c2ccccc2)nc2sccn12)c1ccc2ccccc2n1	15	.
OCCOCCNc1ncnc2sc(-c3ccccc3)cc12	13	-0.5
CC1CN(S(=O)(=O)c2ccc(NC(=O)C(NC(=O)Cc3ccccc3)C(C)C)cc2)CC(C)O1 (stereo unspecified)	9	.
CCc1ccc(C2CC(=O)NC(N)=N2)cc1 (stereo unspecified)	-4	.
C=C1SC(=Nc2c(C)cccc2Cl)N(C(=O)c2sc3ccccc3c2Cl)C12CCCCC2	.	2.5

Single entries from above.
Entry for CCc1ccc(C2CC(=O)NC(N)=N2)cc1 (stereo unspecified) under S aureus helic: -4
Entry for C=C1SC(=Nc2c(C)cccc2Cl)N(C(=O)c2sc3ccccc3c2Cl)C12CCCCC2 under MgrA-DNA mod: 2.5

Continuation.
SMILES	S aureus helic	MgrA-DNA mod
CCCc1n[nH]c(=O)c2c1nnn2Cc1ccccc1	-13	.
O=C(Nc1ccc(-c2nc3ncccc3o2)cc1)c1ccccc1	4	0.3
O=c1c(C=NC2CC2)c(O)n(C2CCCCC2)c(=O)n1C1CCCCC1	5	1.6
CC1CCCCN1C(=S)NCc1ccco1 (stereo unspecified)	-13	.
Cc1nc2ccccc2c(=O)n1NC(=O)c1ccccc1	1	-2.6
Cc1ccc(P(=O)(CO)c2ccc(C)cc2)cc1	.	0.9
CCCCCCCCCCCCN=C(C)c1ccccc1O	.	-1.0
CCOC(=O)C(C#N)C(=O)c1ccc(N)cc1 (stereo unspecified)	13	-2.7
COc1ccccc1-c1nc(-c2ccc(C(F)(F)F)cc2)no1	-15	.
CCN(Cc1ccncc1)C(=O)C1CC1C (stereo unspecified)	-19	1.7

Full records, quoted from the list.
`NC(=O)c1ccc(NC(=O)COc2ccc(F)cc2Cl)cc1` as listed: S aureus helic: 0; MgrA-DNA mod: .
`CCOC(=O)c1ccc(NC(=O)C2CC(=O)N(C)C(=Nc3ccc(F)cc3)S2)cc1` (stereo unspecified) as listed: S aureus helic: .; MgrA-DNA mod: 0.9

Further entries follow:
SMILES	S aureus helic	MgrA-DNA mod
Cc1cc(C)c2c(=O)c3c(oc2c1)C(=O)N(CCO)C3c1ccccc1F (stereo unspecified)	26	.
O=C(Nc1ccc2ccccc2n1)c1ccc(Cl)cc1	.	-0.5
CCCCOc1ccc(-c2nnn(C(C)(C)C(=O)O)n2)cc1	2	2.0
CCOc1nc2cccnc2n(C(CC)C(=O)Nc2ccccc2CC)c1=O (stereo unspecified)	4	.
COc1ccc(NC(=O)CSCc2ccccc2)cn1	6	.
COC(=O)c1cnc(NN2C(=O)CCC2=O)nc1C(F)(F)F	.	-0.3
COc1cccc(NC(=O)c2ccccc2Cl)c1	22	.
CCOC(=O)c1c(N)nc(SC)n1-c1ccc(C(C)C)cc1	.	0.2
CCC(CC)N1CCN(S(=O)(=O)CC)CC1	9	-1.4
Cc1ccc(Cn2c(CCCNC=O)nc3ccccc32)cc1	6	1.1
Cc1ccc(Oc2nc(Cl)nc(Oc3ccc(C)cc3)n2)cc1	-3	-3.4
CC(=O)Nc1ccc(C(=O)Cn2c3[n+](c4c(F)c(F)ccc42)CCCCC3)cc1	10	-1.5
CCOC(=O)c1c(-c2ccccc2)oc2ccc(OCc3c(F)c(F)c(F)c(F)c3F)cc12	.	-0.8
Cc1nn(C)cc1C(=O)c1ccccc1	-17	-0.2
COc1ccc2oc(=Nc3ccc(Cl)cc3Cl)c(C(=O)NC(C)=O)cc2c1	.	1.5
CSC1=NC2(CCCCC2)NC2=C1CCCC2	-2	2.1
COc1ccc(NCc2cn[nH]c2-c2ccccc2)c(OC)c1	32	.
O=S(=O)(NCCNS(=O)(=O)c1cc(C(F)(F)F)cc(C(F)(F)F)c1)c1cc(C(F)(F)F)cc(C(F)(F)F)c1	.	-1.8
NCCSc1n[nH]c(=O)[nH]c1=O	14	.
COC(=O)c1ccccc1NC(=O)Cn1c(SC)nc2ccccc21	.	2.1
Cc1onc(-c2c(Cl)cccc2Cl)c1NC(=O)Nc1ccc(Cl)cc1	-10	.
CC1CCCC(C)N1C(=O)COc1ccc(C(=O)N=Nc2c(O)[nH]c3ccccc23)cc1 (stereo unspecified)	-6	.
Cc1cc2c(c(=O)o1)C(C(C)C)C(C#N)=C(N)O2 (stereo unspecified)	5	-0.6
CC(=O)Oc1cc2c(C(=O)N3CCOCC3)c(C)oc2c2ccccc12	-13	.
Cc1cc(SCC2=NNC(=O)C2)c(Cl)cc1Cl	6	.
CN(C)c1ccc(/C=C2/N=C(c3cccs3)OC2=O)cc1	-114	.
COCc1cc(=O)[nH]c(/N=C(\NC(=O)c2ccc(C)cc2)Nc2cccc(Cl)c2)n1	0	0.2
O=C(Cc1ccccc1)NC1CCN(S(=O)(=O)c2cccc(Cl)c2Cl)CC1	.	3.1
COC(=O)c1ccc(COC(=O)C2COc3ccccc3O2)o1 (stereo unspecified)	3	.
